# RecA intein inh: blocks M. tuberculosis RecA intein splicing; P9WHJ3; cell-free RecA intein splicing, fluorescence; inhibition, %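 (about 9 µM by stock and volumes)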; actives 0.75% (n = 290,000); in the data active means inhibition above about 30%; inconclusive means no clear call, values can overlap the other calls;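 further: 0% = vehicle wells and 100% = reference inhibitor control wells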
# Target sequence (P9WHJ3 whole entry, looked up): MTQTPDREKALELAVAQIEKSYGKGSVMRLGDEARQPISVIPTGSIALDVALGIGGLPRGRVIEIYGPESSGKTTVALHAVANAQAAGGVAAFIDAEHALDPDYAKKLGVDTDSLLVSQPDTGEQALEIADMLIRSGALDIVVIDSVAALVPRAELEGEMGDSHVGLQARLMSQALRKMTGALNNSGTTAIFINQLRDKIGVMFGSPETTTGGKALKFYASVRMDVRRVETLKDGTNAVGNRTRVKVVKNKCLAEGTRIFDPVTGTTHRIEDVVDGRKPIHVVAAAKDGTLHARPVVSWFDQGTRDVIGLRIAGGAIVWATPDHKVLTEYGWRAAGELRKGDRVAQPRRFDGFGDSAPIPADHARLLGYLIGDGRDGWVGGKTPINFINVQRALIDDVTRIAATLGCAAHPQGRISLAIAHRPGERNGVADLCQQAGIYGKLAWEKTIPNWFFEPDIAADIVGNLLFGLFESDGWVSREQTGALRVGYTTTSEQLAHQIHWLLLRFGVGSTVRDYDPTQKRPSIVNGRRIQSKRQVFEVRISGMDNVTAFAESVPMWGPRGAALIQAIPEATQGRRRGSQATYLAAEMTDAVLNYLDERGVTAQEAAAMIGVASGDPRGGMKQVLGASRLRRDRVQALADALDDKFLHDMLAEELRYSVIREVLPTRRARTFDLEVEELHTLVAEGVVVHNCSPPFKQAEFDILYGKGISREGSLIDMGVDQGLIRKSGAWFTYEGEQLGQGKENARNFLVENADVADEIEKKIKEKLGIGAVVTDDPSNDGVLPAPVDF
# Arbovirus anti: arbovirus infection inhibition; arbovirus infection cell-based antiviral screen; inhibition, % at 10 µM; actives 0.37% (n = 200,000);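 active means inhibition from about 30%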;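 further: bluetongue infection of BSR cells; cell survival read as ATP light after 72 h; 0% = infected wells without compound and 100% = uninfected wells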
# YopH inh: YopH (Yersinia) phosphatase inhibition | actives 0.16% (n = 140,000) | AID 898 | inhibition, %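 (about 10 µM by stock and volumes)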 | fluorescence Ex485/Em525;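 active means inhibition of 50% or more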;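 further: controls were vehicle for no effect and minimum signal wells for full effect; inactives centre near -20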
# Mtb bLac sens: beta-lactam sensitization of Mtb H37Rv; M. tuberculosis H37Rv growth with meropenem, percent inhibition; hits of this screen are not shown here; inhibition, % at 25 µM; actives 0.27% (n = 330,000);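 active means about 74% or more and at least 40 points above the plate without the antibiotic, then above 30% in a dose series; inconclusive means first-round hits that could not be retested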;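 further: growth measured after seven days incubation then overnight dye step; 0% = bacteria only wells and 100% = bacteria with antibiotic; twin plates without the antibiotic show which effects depend on it; some results filed as inactive read as strong as hits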
# Mtb growth: M. tuberculosis H37Rv growth inhibitors, H37Rv strain (AID 1626). M. tuberculosis H37Rv growth inhibition; higher % means a stronger effect. actives 0.95% (n = 220,000). one-dose inhibition, % at 10 µM; IC50 in µM for titrated hits;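 active means confirmed in a dose series; inconclusive means inhibition above 80% but not taken into the dose series; inactive means below 80% or under 30% at every dose of the series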;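 further: bacteria incubated seven days before Alamar blue readout; 0% = bacteria only wells and 100% = bacteria with antibiotic wells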
# Arbovirus anti repeat: further read-out of Arbovirus anti, marked with its call; inhibition, %; measured here: 10K subset replicate screen; many hits read low in the repeat;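 first of two repeat runs on a subset; 0% = infected and 100% = uninfected wells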
# Starred values were filed as active, the others as inactive; ? = inconclusive; / = not tested or not shown. This is a subset; the hit share may differ from the screen's.
SMILES,RecA intein inh,Arbovirus anti,YopH inh,Mtb bLac sens,Mtb growth,others
COc1ccc([N+](=O)[O-])cc1N/C(=N/S(=O)(=O)c1ccccc1)c1ccccc1,1.9,0,/,-9,6%,
Cc1ccc2c(c1)c1c3n2CCN(C=O)C3CCC1 (stereo not given),4.6,/,/,6,/,
COc1ccc(CN2C(=O)CSC2c2ccccn2)cc1 (stereo not given),3.0,/,/,-3,-19%,
COc1ccc(CCNC(=O)C2=COCCO2)cc1,-0.6,-2,6,5,1%,
COc1cccc2c3c(c(=O)[nH]c12)CCC(C)(C)O3,-1.8,-2,-26,55,1%,
COc1ccccc1NC(=O)Nc1nc(CC(=O)Nc2cc(F)ccc2F)cs1,6.5,/,/,3,/,
O=C(Nc1ccc(N2CCOCC2)cc1)C1CCN(C(=O)OCc2ccccc2)CC1,4.4,/,/,-8,-5%,
COc1cc(C(=O)O/N=C2\C=CC(=O)C(C)=C2)cc(OC)c1OC,22,-35,-36,-8,-6%,
Cc1ccc(C)c(N2CCN(C(=O)c3cc(S(=O)(=O)N4CCOCC4)cn3C)CC2)c1,-0.4,/,/,1,/,
COc1cccc(/C=N/Nc2nc3ccccc3n3cnnc23)c1O,-5.0,-15,-7,-1,-8%,
CC(=O)c1cccc(NC(=O)c2cc(-n3cnnc3)ccc2Cl)c1,/,10,2,-10,2%,
COc1cccc(/C=C2\SC(=O)N(CCC(=O)NNC(=O)c3cccc(Cl)c3)C2=O)c1,0.0,-12,-30,5,3%,
COC(=O)c1cn(NC(=O)c2ccc([N+](=O)[O-])cc2Cl)c(=O)c2ccccc12,0.4,-22,/,-5,2%,
O=C(CSc1ncccc1C(=O)O)c1ccccc1,-0.5,7,-39,1,-5%,
CC(C)OC(=O)c1ccc(NC(=O)c2ccccc2)cc1,-3.4,-5,-18,0,69%,
CC(=O)c1ccc(N2CCN(S(=O)(=O)c3cccc4nonc34)CC2)cc1,4.1,/,/,-5,4%,
CCOc1cc(C(=O)N2CCc3cc(OC)c(OC)cc3C2)ccc1OC(F)F,/,-10,11,-2,3%,
COc1ccc(C(=O)NCC(=O)N/N=C/c2ccc(C)o2)cc1OC,2.3,/,/,-2,/,
COc1ccccc1Cn1c(/C=C/c2ccccc2)nc2ccccc21,24,5,-26,10,12%,
C(#CCN1CCOCC1)COCCOC(c1ccccc1)c1ccccc1,3.2,-6,-14,-5,-11%,
Clc1ccccc1OCc1nnc(-c2ccccc2)o1,2.0,-11,/,7,-5%,
Cc1ccc(N2CC(C(=O)Nc3ccccc3C(=O)N3CCOCC3)CC2=O)cc1 (stereo not given),-0.5,/,/,-4,/,
COc1c(C)cccc1C(=O)NCc1ccc2c(c1)OCO2,-1.9,/,/,-1,/,
O=C(N/N=C/c1ccc(OC(=O)c2ccc([N+](=O)[O-])cc2)cc1)c1cccnc1,-1.2,/,/,41,/,
Cc1cc2nnc(SCC(=O)Nc3cc(S(=O)(=O)N4CCOCC4)ccc3Cl)n2c2ccccc12,-1.9,6,-20,1,2%,
Cc1cc(C)c(C)c(S(=O)(=O)NNC(=O)c2cccc(S(=O)(=O)N3CCOCC3)c2)c1C,1.5,6,-38,2,4%,
COCCn1c(SC2CCOC2=O)nc2ccccc2c1=O (stereo not given),-0.9,2,/,-2,5%,
CCOC(=O)N1CCC(N2Cc3cccc(C(=O)N4CCN(c5cccc(C)c5C)CC4)c3C2=O)CC1,2.8,4,/,57,5%,
Cn1c(-c2sc3cc(C(F)(F)F)cnc3c2-c2cccnc2)n[nH]c1=S,2.5,1,-17,-2,9%,
CCOC(=O)c1cnc(NCc2ccccc2)nc1C,-1.8,-6,-31,?,5%,
Cc1noc2ncnc(Oc3ccc(Cl)cc3Cl)c12,1.2,-6,/,-2,-7%,
CCOC(=O)c1cnn(Cc2cccc(Cl)c2)c1C,1.6,-4,/,3,9%,
CN(C)Cc1c(C(=O)N/N=C/c2ccccc2OCc2ccc(F)cc2)nnn1-c1nonc1N,-1.3,/,/,0,/,
CCN(CCNc1ccc([N+](=O)[O-])c2cccnc12)S(=O)(=O)c1ccc(Cl)cc1,3.4,-3,-20,11,2%,
O=C(c1ccccc1)c1ccc(OCC(O)CN2CCOCC2)cc1 (stereo not given),-2.1,/,-5,-4,-4%,
COc1ccc(OC)c2[nH]c(=O)c(CCNS(=O)(=O)c3ccc(C)cc3)cc12,2.6,-1,-39,-8,/,
COCCNc1nc(NCc2ccccc2)c2cnn(C)c2n1,0.5,/,/,0,/,
CCC1(c2ccc(F)cc2)NC(=O)N(CC(=O)c2ccc[nH]2)C1=O (stereo not given),3.1,-2,-118,-2,-3%,
C/C=C\C(=O)Nc1cccc(C2=NOC3(C2)C[C@@H](C(N)=O)N(C(=O)c2ccc(Cl)cc2)C3)c1 (stereo not given in full),-2.7,/,/,-10,8%,
COc1ccc(CCNC(=O)CSc2nc(-c3ccco3)cc(C(F)(F)F)n2)cc1OC,2.2,7,7,-9,2%,
COc1cccc(CCNCc2cccc(C(F)(F)F)c2)c1,-6.1,13,/,-2,13%,
O=C(O)/C=C/C(=O)NC1CCC(CC2CCC(NC(=O)/C=C/C(=O)O)CC2)CC1 (stereo not given),-1.1,-1,/,0,-8%,
Cc1cc(S(=O)(=O)Nc2ccc(C(=O)NCc3cccnc3)cc2)ccc1F,8.6,/,/,-8,/,
CCOC(=O)C1=C(COC(=O)/C=C/c2cc(Br)ccc2F)NC(=O)NC1C (stereo not given),-2.0,/,/,-2,/,
COc1ccc(C(=O)NC2CCCCCC2)cc1S(=O)(=O)N1CCCC1,-0.3,1,/,0,-7%,
COc1ccc(N(CC(=O)N2CCN(Cc3ccccc3)CC2)S(C)(=O)=O)cc1,1.6,/,/,-7,/,
CCOC(=O)N/N=C/c1ccc(OC)c(O)c1,-1.2,8,/,8,-2%,
Cc1onc(-c2c(Cl)cccc2Cl)c1CO/N=C(\C#N)c1c(Cl)cccc1Cl,/,/,/,-2,7%,
Cc1ccc(C2N=C(N)Nc3nc4ccccc4n32)cc1 (stereo not given),-0.4,-11,/,-3,-6%,
CCOc1ccccc1CNCc1ccc(F)cc1,-2.0,4,/,-7,3%,
# Other records follow.
SMILES,RecA intein inh,Arbovirus anti,YopH inh,Mtb bLac sens,Mtb growth,others
O=C(C(c1ccccc1)c1ccccc1)N1CCN(Cc2ccc(Br)cc2)CC1,-0.5,-4,-2,4,0%,
CC(=O)c1ccc(NC(=S)Nc2ccc(N3CCOCC3)cc2)cc1,-3.6,0,/,/,-8%,
O=C1N(Nc2ccccc2)C(c2ccc(Br)cc2)C12CCCCC2 (stereo not given),-2.2,-6,3,3,-7%,
O=C(CC1C(=O)NCCN1Cc1cccc(Oc2ccccc2)c1)NCc1cccnc1 (stereo not given),1.0,-8,/,-4,4%,
CCc1ccc(NC(=O)CCNS(=O)(=O)c2cccc3nsnc23)cc1,2.6,3,-21,24,26%,
Cc1ccccc1N1C(=O)C2C3CC(=O)C(c4ccccc43)C2C1=O (stereo not given),-3.6,5,-14,2,-9%,
CCN(CC)c1ncn(Cc2c(Cl)cccc2Cl)c2ncnc1-2,1.8,-10,-7,1,0%,
CC(C)(C)c1ccc(C(=O)NNC(=O)c2ccncc2)cc1,1.9,/,/,-2,/,
COc1ccc(NC(=O)c2cc(-c3ccc(C)cc3)on2)cc1,-0.5,/,/,7,/,
CCCNC(=O)C1CCN(S(=O)(=O)c2ccc(Br)cc2)CC1,0.1,8,-5,4,-1%,

# Reprinted from the part before: two entries, followed by the next part.
SMILES,RecA intein inh,Arbovirus anti,YopH inh,Mtb bLac sens,Mtb growth,others
COc1ccc(NC(=O)c2cc(-c3ccc(C)cc3)on2)cc1,-0.5,/,/,7,/,
CCCNC(=O)C1CCN(S(=O)(=O)c2ccc(Br)cc2)CC1,0.1,8,-5,4,-1%,
CCN(C(=O)Nc1ccccc1OC)c1c(N)n(Cc2ccccc2)c(=O)[nH]c1=O,0.6,-1,-9,-9,4%,
c1ccc(N2CCN(c3ccccc3)C2c2cccs2)cc1,/,-11,-48,-4,3%,
COc1ccc(/C(C)=N/Nc2ncc(Cl)cc2Cl)c(O)c1,-2.3,16,-4,101,55%,
Cc1cccc(NC(=O)CC2S/C(=N/c3nccs3)N(C)C2=O)c1 (stereo not given),-0.2,-6,-12,-9,8%,
C[C@H]1CCCC(=O)CCC/C=C/c2cc(O)cc(O)c2C(=O)O1,2.3,7,-21,10,2%,Arbovirus anti repeat=10
CCCCn1c(N)c(N(CC(C)C)C(=O)CSc2n[nH]c(-c3ccc(C)cc3)n2)c(=O)[nH]c1=O,1.9,/,/,0,/,
C/C(CC(=O)Nc1ccc(Cl)c(C(F)(F)F)c1)=N\NC(=O)c1cccc(O)c1,-3.7,-27,-12,62,31%,
COc1cc(Br)c(C(=O)c2nccc3cc(OC)c(OC)cc23)cc1OC,84*,/,/,4,/,
C[C@]12CC(O)C3C(CCC4=CC(=O)CC[C@@]43C)C1CCC2c1csc(-c2ccccc2)n1 (stereo not given in full),-0.2,/,/,-8,8%,
Cc1cc(OCC(=O)Nc2ccccc2C(N)=O)c2c(C)cc(=O)oc2c1,8.1,/,/,-2,/,
CSCCC(NC(=O)c1ccccc1)C(=O)O (stereo not given),6.4,20,/,2,-4%,
CC(C)c1ccc(NC(=O)COC(=O)[C@H](CCC(N)=O)NC(=O)c2ccc(F)cc2)cc1,2.1,-4,-24,-8,/,
C/C(=N\N1C(=O)c2ccccc2NC1c1ccco1)c1ccccc1O (stereo not given),0.8,-25,/,3,0%,
CCOC(=O)Cn1c(=O)oc2cc(S(=O)(=O)NC(C)(C)CC)ccc21,-1.3,/,/,-1,12%,
COc1cc(/C=C2\C(=N)N3N=C(S(C)(=O)=O)SC3=NC2=O)ccc1OS(=O)(=O)c1ccccc1,10,/,/,5,/,
CC(O)[C@H]1CNCCN1CCc1cc(C(F)(F)F)cc(C(F)(F)F)c1 (stereo not given in full),-1.0,/,/,-11,/,
Cn1c(SCc2ccccc2F)nnc1-c1ccccn1,0.5,5,/,3,1%,
O=C(Cc1cccs1)N1CCCC(c2nc3c(nnn3Cc3cccc(Cl)c3)c(=O)[nH]2)C1 (stereo not given),8.9,-5,-34,63,-2%,
CCN(CC)c1ccc(/C=N/N2C(C)CCCC2C)c(O)c1 (stereo not given),1.7,/,/,9,/,
O=C(CN1C(=O)NC2(CCCCCC2)C1=O)NCc1ccco1,-1.1,5,-96,7,-5%,

# Overlap with the part before: 6 entries; new compounds follow.
SMILES,RecA intein inh,Arbovirus anti,YopH inh,Mtb bLac sens,Mtb growth,others
COc1cc(/C=C2\C(=N)N3N=C(S(C)(=O)=O)SC3=NC2=O)ccc1OS(=O)(=O)c1ccccc1,10,/,/,5,/,
CC(O)[C@H]1CNCCN1CCc1cc(C(F)(F)F)cc(C(F)(F)F)c1 (stereo not given in full),-1.0,/,/,-11,/,
Cn1c(SCc2ccccc2F)nnc1-c1ccccn1,0.5,5,/,3,1%,
O=C(Cc1cccs1)N1CCCC(c2nc3c(nnn3Cc3cccc(Cl)c3)c(=O)[nH]2)C1 (stereo not given),8.9,-5,-34,63,-2%,
CCN(CC)c1ccc(/C=N/N2C(C)CCCC2C)c(O)c1 (stereo not given),1.7,/,/,9,/,
O=C(CN1C(=O)NC2(CCCCCC2)C1=O)NCc1ccco1,-1.1,5,-96,7,-5%,
CC(=O)N1CCN(S(=O)(=O)c2cccc(C(=O)Nc3ccc(OC(F)F)cc3)c2)CC1,0.5,/,/,-4,/,
Cc1ccc(C(C2C(=O)CC(C)(C)CC2=O)C2C(=O)CC(C)(C)CC2=O)s1,/,-3,-11,5,-8%,
Clc1ccc(OCC#CCN2CCCCCC2)cc1,1.8,2,/,0,11%,
Cc1cc(Oc2ncccc2[N+](=O)[O-])c2cc(Cl)ccc2n1,4.1,/,/,0,-14%,
COCCNC(=O)c1ccc(C(=O)NCCOC)s1,-0.4,4,-26,-11,-2%,
CC(=O)C1C(=O)c2c(cccc2[N+](=O)[O-])C1=Nc1ccc(S(N)(=O)=O)cc1 (stereo not given),1.6,-1,/,2,-6%,
COc1ccc(CCNC(=S)NC(=O)c2ccccc2)cc1OC,2.8,8,-34,-8,6%,
CCC(C(=O)NCc1ccco1)N(C(=O)CNS(=O)(=O)c1ccccc1)c1ccc(OC)cc1 (stereo not given),0.8,-5,-4,-11,2%,
COc1cc(OC)c(C2=NOC(C(=O)Nc3cc(C)nn3-c3ccccc3)C2)cc1Cl (stereo not given),2.9,2,-13,-5,0%,
COCCNCC(=O)Nc1ccccc1Sc1ccccc1,-1.6,-11,-28,0,3%,
Cc1cc(C)cc(NC(=S)/C(=C(\[O-])c2ccc(Cl)cc2Cl)[n+]2ccc(C(C)(C)C)cc2)c1,-0.8,/,/,-2,-7%,
Fc1ccccc1-c1nc2c(s1)CCc1onc(-c3ccc(Br)cc3)c1-2,0.8,/,/,-2,-2%,
O=C(CCNS(=O)(=O)c1cccs1)NC1CCN(Cc2ccccc2)CC1,1.6,-1,/,2,3%,

# Screening data (PubChem)
